Screens as filed in PubChem BioAssay.
D2 potentiator = Beta-Arrestin HTS for Positive Allosteric Modulators of the Human D2 Dopamine Receptor: Potentiators; D(2) dopamine receptor (Homo sapiens), P14416; DiscoveRx D2 beta-arrestin cells, luminescence, 90 min; 100% = 57 uM dopamine signal; 360,000 compounds, 0.23% hits; potentiation, % (concentration not given with the values); AID 624464, 2012; active = potentiation of 50% or more; inconclusive = 30% to 50%; inactive = 30% or less;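 note: tested on top of an EC20 dose of dopamine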
Target sequence (P14416 whole entry, looked up): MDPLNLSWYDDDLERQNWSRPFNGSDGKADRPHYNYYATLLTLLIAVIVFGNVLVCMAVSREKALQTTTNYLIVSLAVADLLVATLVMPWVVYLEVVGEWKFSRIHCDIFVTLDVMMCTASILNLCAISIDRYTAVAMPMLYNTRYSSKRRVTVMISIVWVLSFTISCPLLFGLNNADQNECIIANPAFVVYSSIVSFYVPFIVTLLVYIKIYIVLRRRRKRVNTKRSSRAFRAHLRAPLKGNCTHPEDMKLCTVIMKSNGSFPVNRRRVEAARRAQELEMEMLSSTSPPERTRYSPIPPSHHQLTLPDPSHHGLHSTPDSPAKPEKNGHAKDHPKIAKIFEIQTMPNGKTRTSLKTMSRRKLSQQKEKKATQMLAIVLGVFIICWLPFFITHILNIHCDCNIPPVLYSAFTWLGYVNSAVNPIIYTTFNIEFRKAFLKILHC
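D2 cells co-treated with compound plus 50 nM dopamine (EC20) for 90 min at 37 deg C to detect potentiation. Beta-arrestin recruitment was read as enzyme-fragment luminescence after 1 h at ambient temperature. Full response was set by 57 uM dopamine.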
Six1-Eya2 inh = qHTS Assay for Inhibitors of the Six1/Eya2 Interaction; AlphaScreen GST-Six1/His-Eya2 binding, biochemical; active compounds read low; control for the full effect not named in the record; 360,000 compounds, 0.56% hits; Homeobox protein SIX1 (Homo sapiens) + Protein phosphatase EYA2 (Homo sapiens), …; activity change, % (no concentration beside the values); in the data active = activity change below about -65%; inconclusive = about -30% to -65%; inactive = above about -30%; note: % is set by controls: 0 for no effect and ±100 for the full control effect
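Six1/Eya2 binding was read as AlphaScreen signal after compounds were pinned into GST-Six1 plus His-tagged Eya2 (5X stock 250/500 nM) in pH 8.0 Tris/NaCl/TCEP buffer, beads added, then incubated 1 h, 37 C, dark.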
TRPV1 PAM = HTS Assay for Compounds that Act as Potentiators of the Vanilloid Receptor 1 | AID 540277, 2011 | Transient receptor potential cation channel subfamily V member 1 (Homo sapiens), Q8NER1 | 320,000 compounds, 0.02% hits | potentiation, % at 8.33 µM | TRPV1-expressing cells, Fluo-8 calcium influx, capsaicin EC20 potentiation; host cell line not named in the record; control for the full effect not named in the record; active means potentiation above 80%; inconclusive means 30% to 80%; inactive means below 30%; note: 0% is about no effect
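Fluo-8 calcium influx in TRPV1-expressing cells, kinetic read (ex 480/em 520 nm). Compound added and read 3 min for agonist activity, followed by capsaicin at EC20 final and 2 min further read for enhancement.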
CtBP-E1A blk = qHTS Assay for Inhibitors of the CtBP/E1A Interaction; AlphaScreen GST-E1A/His-CtBP binding, 1536-well; active compounds read low; control for the full effect not named in the record; CtBP / adenovirus E1A interaction (AlphaScreen); activity change, % (concentration not given with the values); 340,000 compounds, 0.49% hits; in the data active means activity change below about -65%; inconclusive means about -30% to -65%; inactive means above about -30%; note: % is set by controls: 0 for no effect and ±100 for the full control effect
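In 5 uL wells, 23 nL compound meets equimolar GST-E1A and His-CtBP (5X stock 125 nM each) for 2 h, 37 °C. Beads (5X, 50 ug/mL) then 1 h, 37 °C, dark.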
PINK1 expr mod = A Quantitative High throughput Screen to Identify Chemical Modulators of PINK1 Expression; Potency, µM (titrated, usually from 76.6 µM), inactives show at the top dose activation (PINK1 increase), most hits filed as activators; 410,000 compounds, 0.2% hits; PINK1 immunofluorescence, high-content cytometry, 24 h; AID 624263, 2012; active = well fitted activation curve with a large enough effect; inconclusive = small, poorly fitted or top-dose-only effect; inactive = flat fitted curve, though single readings scatter; cell line not stated here;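 note: potency is the fitted concentration of half-maximal effect; % of control where 0% means no effect; nearly all actives have a fitted effect of over 65% in size; a mitochondrial uncoupler was the plate control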
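Measures PINK1 amount and localization on or inside mitochondria by immunofluorescence. Stable cells get compounds at 5 concentrations for 24 hours before fixation and staining; CCCP controls included.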
D2 agonist = Beta-Arrestin HTS for Positive Allosteric Modulators of the Human D2 Dopamine Receptor: Agonists. 360,000 compounds, 0.084% hits. activation, % (test concentration not listed). AID 624465, 2012. D(2) dopamine receptor (Homo sapiens), P14416. DiscoveRx PathHunter D2 beta-arrestin, luminescence, 90 min; 100% = 57 uM dopamine signal; in the data active = activation above about 40%; inconclusive = about 15% to 40%; inactive = below about 15%; note: compound concentration not given in the record; the text of the record calls up to 30% inactive
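Agonist mode: compounds alone added to overnight-plated D2 PathHunter cells for 90 min at 37 C, with 57 uM final dopamine (EC100) defining full response. Beta-arrestin recruitment detected by chemiluminescent reagent, read after 1 h at ambient temperature.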
Sfp inh = qHTS Assay for Inhibitors of Bacillus subtilis Sfp phosphopantetheinyl transferase (PPTase); Biochemical Sfp PPTase activity, qHTS; AID 1490, 2009; Potency, µM, for the others: max response, negative = inhibition, hits mostly inhibitors; 310,000 compounds, 3.5% hits; active = well fitted inhibition curve with a large enough effect; inconclusive = small, poorly fitted or top-dose-only effect, or another doubt; inactive = no such curve, though single readings can be large or run the other way;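 note: the enzyme is Sfp with the accession as filed and its product quenches rhodamine fluorescence; potency is the fitted concentration of half-maximal effect; 0% = enzyme reaction without inhibitor and -100% = no enzyme wells; top concentration of the series not given in the record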
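Fluorescence-quenching assay with 15 nM Sfp, 5 uM rhodamine-CoA and 12.5 uM BHQ-2-labelled ybbR peptide in pH 7.6 Hepes/MgCl2 buffer. Enzyme was pre-incubated with compound for 15 min at room temperature. Rate was taken from the 30-min fluorescence change (525/598 nm).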
Starred values were filed as active, the others as inactive; u = inconclusive; x = no result given; [ ] = another dose, or the depositor's remark.

(1) O=C(COC(=O)C1CCC(N2C(=O)C3C4CCC(C4)C3C2=O)CC1)c1ccc(F)cc1 (stereo not given)
(2) NCc1csc(NC(=O)Nc2cccc(Cl)c2)n1
(3) O=C(c1cc([N+](=O)[O-])cc([N+](=O)[O-])c1)N1CCN(Cc2ccc3c(c2)OCO3)CC1
(4) Cc1onc(-c2ccccc2)c1C(=O)N1CCN(c2ccc([N+](=O)[O-])cc2)CC1
(5) O=[N+]([O-])c1cccc(-c2csc(N/N=C/c3cccc(O)c3)n2)c1
(6) N#CCCN1CCN(S(=O)(=O)c2ccc(S(=O)(=O)NC3CC3)cc2)CC1
(7) COc1ccccc1CNC(=O)CSc1nnc2ccc(-c3cccnc3)nn12
(8) COc1cccc2c(N/N=C/c3ccco3)cc(C)nc12
assay / compound	1	2	3	4	5	6	7	8
D2 potentiator	-3	0	9	3	2	-3	-2	-5
Six1-Eya2 inh	3	-11	9	0	-28	2	4	1
TRPV1 PAM	-15	x	-4	x	-11	13	6	-10
CtBP-E1A blk	0	-13	1	1	u	3	-3	1
PINK1 expr mod	1.4%	5.7%	2.6%	-0.1%	-1.2%	-3.1%	-1.5%	-2.3%
D2 agonist	4.2	2.1	11	-2.9	4.3	-2.7	2.7	7.1
Sfp inh	-4%	x	12%	x	50µM*	5%	9%	-19%

(9) COCCOC(=O)C1=C(C)Nc2ncnn2C1c1ccco1 (stereo not given)
(10) Fc1ccc(NC(=S)Nc2ccccc2OC(F)F)cc1Cl
(11) CC1(C)CC(=O)C(C2C3=C(CC(C)(C)CC3=O)OC3=C2C(=O)CC(C)(C)C3)=C(O)C1
(12) CN(c1ccc(C(=O)NCc2ccccn2)cc1)S(=O)(=O)c1ccc(Cl)cc1
(13) COc1cc2c(cc1NC(=O)COC(=O)[C@@H](NS(=O)(=O)c1ccccc1)C(C)C)oc1ccccc12
(14) COc1ccc(/C=N/NC(=O)c2ccccc2[N+](=O)[O-])cc1CN1CCc2cc(OC)c(OC)cc2C1C (stereo not given)
(15) Cc1ccnc(NC(c2ccccn2)c2c(C)[nH]c3ccccc23)c1 (stereo not given)
(16) COc1ccc(-c2nc(CN3CCCCC3c3cccnc3)c(C)o2)c(F)c1 (stereo not given)
assay / compound	9	10	11	12	13	14	15	16
D2 potentiator	-6	-23	-10	-9	4	-10	-7	-6
Six1-Eya2 inh	3	7	-4	-7	-1	-12	-6	-8
TRPV1 PAM	-1	3	-17	4	17	0	-17	17
CtBP-E1A blk	10	6	-10	1	12	10	3	-3
PINK1 expr mod	1.8%	u	1.6%	1.0%	2.1%	2.9%	0.0%	3.5%
D2 agonist	-1.7	-2.2	-1.8	-1.9	-10	-0.9	-23	1.7
Sfp inh	0%	9%	-9%	7%	10%	4%	u	6%

(17) CC1CN(C(=O)C(c2ccccc2)c2ccccc2)CC(C)O1 (stereo not given)
(18) C=CCSc1nc2sc(C)c(C)c2c(=O)n1N
(19) CCOC(=O)c1cccc(Nc2nc(C)cc(C)n2)c1
(20) O=C(OCc1nnc(-c2ccccc2)o1)c1ccc(CO)cc1
(21) Cc1nc2sc(-c3ccccc3)cc2c(=O)n1/N=C/N(C)C
(22) Cc1ccc(C(=O)Nc2sc3c(c2C(=O)O)CCC(C)C3)o1 (stereo not given)
(23) Fc1ccc(/C=N/Nc2ncnc3nc[nH]c23)cc1F
(24) COc1cccc(OC)c1C(=O)N1CCN=C1SCc1cccnc1
assay / compound	17	18	19	20	21	22	23	24
D2 potentiator	-19	-22	7	-10	-10	2	-2	-14
Six1-Eya2 inh	1	14	3	2	-2	-5	-30	6
TRPV1 PAM	4	17	-1	1	2	x	5	8
CtBP-E1A blk	6	0	4	-15	9	x	-1	12
PINK1 expr mod	x	10.0%	10%	0.9%	-0.3%	1.5%	5.7%	1.3%
D2 agonist	-2.9	-5.2	1.3	3.2	1.6	-2.4	-3.7	-1.9
Sfp inh	6%	5%	15%	10%	-10%	x	-4%	3%

(25) COc1ccc(S(=O)(=O)N2CCOC2CNC(=O)C(=O)NCCc2ccc(OC)c(OC)c2)cc1C (stereo not given)
(26) CC(=O)c1ccc(N2CCN(C(=O)CCNC(=O)Cn3ccc4ccccc4c3=O)CC2)cc1
(27) CCCCNC(=S)N1CCN(c2ccccc2Cl)CC1
(28) CCOC(=O)[C@]12CCCC=C1N(Cc1ccco1)C(=O)[C@H](CC(=O)N1CCN(C(=O)C3CC3)CC1)C2
(29) CC(=O)N/C(=C\c1ccccc1)C(=O)Nc1ccccc1C
(30) COC(=O)c1ccc(NC(=O)C2CCCN(S(=O)(=O)c3cnc[nH]3)C2)cc1 (stereo not given)
(31) CCOC(=O)C1=C(C)N=C2SC=C(C)N2C1c1ccc(OC)cc1 (stereo not given)
(32) CCOC(=O)c1c(C)[nH]c(C)c1C(=O)COC(=O)c1ccc(Cl)c(S(=O)(=O)NCc2ccccc2)c1
assay / compound	25	26	27	28	29	30	31	32
D2 potentiator	3	3	-7	x	-10	-8	-9	-8
Six1-Eya2 inh	1	-6	4	-5	5	4	0	-14
TRPV1 PAM	-1	-12	-5	x	-1	-9	-2	7
CtBP-E1A blk	0	-23	6	5	x	5	5	-9
PINK1 expr mod	-1.3%	0.5%	0.6%	-0.6%	-1.3%	-0.9%	3.7%	1.0%
D2 agonist	2.5	6.8	-1.8	x	-0.4	-0.5	-2.4	-5.0
Sfp inh	5%	8%	7%	x	8%	-9%	11%	1%

(33) CC(C)Sc1oc(-c2ccco2)nc1S(=O)(=O)c1ccc(F)cc1
(34) CC1CCN(CCn2c(=S)[nH]c3ccccc3c2=O)CC1
(35) O=C(O)Cc1ccccc1C(=O)O
(36) COc1ccc(Cl)cc1S(=O)(=O)N1CCN(C(=O)COc2ccccc2)CC1
(37) C#CCSc1nc2sc3c(c2c(=O)n1C)CCC3
(38) Cc1cccc(NC(=O)c2nc[nH]c2C(=O)N[C@@H](C)CO)c1
(39) CCN(CC)CCNc1nc(C(F)(F)F)nc2c1nnn2Cc1ccccc1
(40) CCC(Sc1ncccc1C(=O)O)C(=O)N1CCOCC1 (stereo not given)
assay / compound	33	34	35	36	37	38	39	40
D2 potentiator	-3	-25	-11	11	-6	x	-24	-3
Six1-Eya2 inh	-3	0	6	0	-4	-12	-2	6
TRPV1 PAM	8	17	3	-1	23	x	-21	-39
CtBP-E1A blk	6	0	3	2	0	-3	-4	4
PINK1 expr mod	6.8%	1.7%	0.7%	1.0%	2.2%	-1.1%	5.9%	-4.6%[38.3 µM]
D2 agonist	-1.0	5.2	-1.1	3.7	-4.0	0.2	1.4	-0.3
Sfp inh	u	0%	11%	0%	-2%	x	17%	50µM*

Quoted at random: 3 records from the list
(35) O=C(O)Cc1ccccc1C(=O)O
(33) CC(C)Sc1oc(-c2ccco2)nc1S(=O)(=O)c1ccc(F)cc1
(40) CCC(Sc1ncccc1C(=O)O)C(=O)N1CCOCC1 (stereo not given)
assay / compound	35	33	40
D2 potentiator	-11	-3	-3
Six1-Eya2 inh	6	-3	6
TRPV1 PAM	3	8	-39
CtBP-E1A blk	3	6	4
PINK1 expr mod	0.7%	6.8%	-4.6%[38.3 µM]
D2 agonist	-1.1	-1.0	-0.3
Sfp inh	11%	u	50µM*

(listing goes on)
(41) CS(=O)(=O)N(CC(=O)O)c1cc(C(F)(F)F)ccc1Cl
(42) CCN(CC)CCN1C(=O)C2C(C(=O)Nc3cc(C)cc(C)c3)C3C=CC2(O3)C1C(=O)NC1CCCCC1 (stereo not given)
(43) COc1ccc(C(C)(O)c2nc(-c3ccc(F)c(Cl)c3)cs2)cc1 (stereo not given)
(44) CC1CN(CCc2ccccc2)C(C)C/C1=N/O (stereo not given)
(45) COc1ccc(NC(=O)CCCn2c(=S)[nH]c3ccccc3c2=O)cc1
(46) COc1ccc(NC(=O)CSc2n[nH]c(CNc3cccc(C)c3)n2)cc1
(47) CS(=O)(=O)N(CC(=O)NC1CC1)C1CCCCC1
(48) CCc1ccc2cc(C)cnc2n1
assay / compound	41	42	43	44	45	46	47	48
D2 potentiator	-2	-8	1	-15	-6	-3	-9	-1
Six1-Eya2 inh	-3	0	9	24	3	-15	1	-3
TRPV1 PAM	5	19	x	x	-6	4	-2	x
CtBP-E1A blk	0	7	-4	36	3	1	1	0
PINK1 expr mod	2.6%	0.1%	-0.8%	2.1%	3.2%	2.0%	0.6%	0.9%
D2 agonist	0.7	-4.0	9.0	-2.1	-0.5	-2.3	-2.2	-2.9
Sfp inh	x	5%	x	x	0%	16%	8%	x

(49) COc1nnc(-c2ccc(C(=O)N3C[C@@H]4C[C@H](C3)c3cccc(=O)n3C4)cc2)c2ccccc12
(50) CC(NC(=O)c1ccco1)C(=O)N1CCN(c2cccc(Cl)c2)CC1 (stereo not given)
(51) Cc1ccc(CN2CCN(c3ccccc3)CC2)o1
(52) CCCCSc1nnc([C@H](CC(C)C)NC(=O)OC(C)(C)C)o1
(53) CCOC(=O)C1CCCN(c2ccc(NC(=O)c3snc4c(=O)[nH]cnc34)cc2)C1 (stereo not given)
(54) CC(C)(C)NC(=O)Cn1nnc(-c2ccc(OCc3c(F)cccc3Cl)cc2)n1
(55) CCCn1c(SCC(=O)Nc2ccccc2CC)nnc1C(C)C
(56) CCCCCCn1nc(C(=O)Nc2nc3c(s2)CCCC3)c2ccccc2c1=O
(57) Cc1cccc2cc(C#N)c(N3CCOCC3)nc12
assay / compound	49	50	51	52	53	54	55	56	57
D2 potentiator	-6	-5	2	-12	6	1	1	14	0
Six1-Eya2 inh	-5	0	-7	6	-23	2	12	-2	24
TRPV1 PAM	13	-4	5	-24	-4	3	-18	-1	3
CtBP-E1A blk	2	-23	-4	8	-27	2	-1	-3	x
PINK1 expr mod	1.3%	-0.5%	1.2%	1.7%	1.5%	1.4%	-1.9%	4.7%	-0.9%
D2 agonist	-3.9	-0.7	u	-3.1	-1.8	3.8	1.6	1.8	-3.4
Sfp inh	4%	x	-18%	9%	2%	10%	6%	-7%	3%
